# Arbovirus anti – arbovirus infection inhibition; inhibition, % at 10 µM; arbovirus infection cell-based antiviral screen; actives 0.37% (n = 200,000);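 active = inhibition from about 30%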;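 also: bluetongue infection of BSR cells; cell survival read as ATP light after 72 h; 0% = infected wells without compound and 100% = uninfected wells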
# RecA intein inh – inhibitors of M. tuberculosis RecA intein splicing. P9WHJ3. cell-free RecA intein splicing, fluorescence. inhibition, %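 (about 9 µM by stock and volumes)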. actives 0.75% (n = 290,000); in the data active = inhibition above about 30%; inconclusive = no clear call, values can overlap the other calls;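 also: 0% = vehicle wells and 100% = reference inhibitor control wells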
# Target sequence (P9WHJ3 whole entry, looked up): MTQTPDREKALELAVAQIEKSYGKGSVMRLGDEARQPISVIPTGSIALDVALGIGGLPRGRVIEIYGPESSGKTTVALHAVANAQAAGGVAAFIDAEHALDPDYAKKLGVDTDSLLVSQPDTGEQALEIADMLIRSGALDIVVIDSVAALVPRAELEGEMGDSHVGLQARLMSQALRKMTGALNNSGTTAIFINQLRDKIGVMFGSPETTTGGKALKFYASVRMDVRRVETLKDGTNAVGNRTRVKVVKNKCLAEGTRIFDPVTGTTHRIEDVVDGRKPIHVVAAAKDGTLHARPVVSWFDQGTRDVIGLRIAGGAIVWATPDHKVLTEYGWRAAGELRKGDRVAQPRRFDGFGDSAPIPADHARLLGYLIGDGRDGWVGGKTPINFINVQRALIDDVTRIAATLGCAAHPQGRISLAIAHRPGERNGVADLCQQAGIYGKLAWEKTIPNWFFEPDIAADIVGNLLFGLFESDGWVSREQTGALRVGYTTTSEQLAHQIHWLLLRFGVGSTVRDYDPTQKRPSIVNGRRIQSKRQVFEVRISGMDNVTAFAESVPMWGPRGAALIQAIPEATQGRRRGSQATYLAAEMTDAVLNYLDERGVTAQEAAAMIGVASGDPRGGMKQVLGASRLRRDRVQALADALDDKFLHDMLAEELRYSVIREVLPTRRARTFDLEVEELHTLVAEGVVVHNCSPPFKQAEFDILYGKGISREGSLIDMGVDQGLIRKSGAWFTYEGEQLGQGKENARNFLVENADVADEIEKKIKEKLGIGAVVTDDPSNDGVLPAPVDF
# YopH PTP inh – blocks Yersinia enterocolitica YopH tyrosine phosphatase; fluorescence Ex485/Em525; inhibition, %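 (about 10 µM by stock and volumes)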; actives 0.16% (n = 140,000); AID 898;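 active = inhibition of 50% or more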;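 also: controls were vehicle for no effect and minimum signal wells for full effect; inactives centre near -20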
# Mtb H37Rv – M. tuberculosis H37Rv growth inhibitors, H37Rv strain (AID 1626). M. tuberculosis H37Rv growth inhibition; higher % means a stronger effect. one-dose inhibition, % at 10 µM; IC50 in µM for titrated hits. actives 0.95% (n = 220,000);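 active = confirmed in a dose series; inconclusive = inhibition above 80% but not taken into the dose series; inactive = below 80% or under 30% at every dose of the series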;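 also: bacteria incubated seven days before Alamar blue readout; 0% = bacteria only wells and 100% = bacteria with antibiotic wells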
# Mtb betalactam – beta-lactam sensitization of Mtb H37Rv | M. tuberculosis H37Rv growth with meropenem, percent inhibition; hits of this screen are not shown here | inhibition, % at 25 µM | actives 0.27% (n = 330,000);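 active = about 74% or more and at least 40 points above the plate without the antibiotic, then above 30% in a dose series; inconclusive = first-round hits that could not be retested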;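 also: growth measured after seven days incubation then overnight dye step; 0% = bacteria only wells and 100% = bacteria with antibiotic; twin plates without the antibiotic show which effects depend on it; some results filed as inactive read as strong as hits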
# * = called active by the depositor; ? = inconclusive; · = not tested or not shown; & = joins results of further samples. This is a subset; rates above refer to the full screens.
# The line under a structure holds: YopH PTP inh	Mtb H37Rv	Arbovirus anti	RecA intein inh	Mtb betalactam
> COc1ccccc1CNC(=O)CCc1cn(C)c2ccccc12
  ·	·	·	1.0	-1
> Cc1cccc(C(=O)NCC(=O)OCC(=O)N2CCc3ccccc32)c1
  ·	-2%	7	-0.5	3
> CCOc1ccc(CN(C)CC(=O)NNC(=O)c2ccc(Cl)cc2)cc1OC
  0	2%	-2	-2.9	1
> CC(CN1CCOCC1)OC(=O)C1COc2ccccc2O1 (stereo unspecified)
  ·	0%	2	0.0	2
> Cc1ccc(OCC(=O)Nc2ccc(CN3CCOCC3)cc2)cc1
  ·	·	·	-1.6	-12
> Cc1ccc(C(=O)OCC(=O)Nc2sccc2C(N)=O)cc1NC(=O)c1ccco1
  -7	-1%	-3	-0.7	4
> CC(/C=N/NC(=O)c1cccnc1)=C\c1ccco1
  -4	-9%	5	0.1	5
> COc1ccc(N/N=C(\C#N)C(=N)N2CCCCC2)cc1
  ·	2%	·	2.2	36
> Cn1c(=O)n(CC(N)=O)c(=O)c2c1nc1n2CCCN1Cc1ccccc1
  ·	·	·	-3.6	-7
> O=C(COC(=O)C1CCN(c2ccc(C(F)(F)F)cn2)CC1)Nc1ccc(Cl)cc1
  ·	·	·	2.0	20
> CCNC(=S)N(CCc1c(C)[nH]c2ccc(Cl)cc12)Cc1cccnc1
  ·	·	·	4.0	4
> CSc1n[nH]c(-c2sccc2OCc2ccc(C)cc2)n1
  -29	-5%	-5	1.0	10
> O=C(C[n+]1cc(-c2ccc(Cl)cc2)n2c1CCC2)Nc1nc(-c2ccccc2)cs1
  ·	?	·	·	96
> Cc1cccc(C(=O)N2CCN(c3ccc(N4CCOCC4)nn3)CC2)c1
  ·	-6%	·	-1.2	7
> COc1ccc(C(CNC(=O)CNC(=O)c2ccccc2Cl)N2CCCC2)cc1 (stereo unspecified)
  ·	·	·	-2.5	4

# Some of the entries above, reformatted.
SMILES	YopH PTP inh	Mtb H37Rv	Arbovirus anti	RecA intein inh	Mtb betalactam
CSc1n[nH]c(-c2sccc2OCc2ccc(C)cc2)n1	-29	-5%	-5	1.0	10
O=C(C[n+]1cc(-c2ccc(Cl)cc2)n2c1CCC2)Nc1nc(-c2ccccc2)cs1	·	?	·	·	96
Cc1cccc(C(=O)N2CCN(c3ccc(N4CCOCC4)nn3)CC2)c1	·	-6%	·	-1.2	7

# Next part.
# The line under a structure holds: YopH PTP inh	Mtb H37Rv	Arbovirus anti	RecA intein inh	Mtb betalactam
> Cn1c(=O)c2c(nc(N3CCN(C(=O)c4ccco4)CC3)n2CCSc2ncccn2)n(C)c1=O
  ·	-1%	0	0.2	-13
> CN(C)CCCNC(=O)/C=C/c1ccc2c(c1)OCO2
  -29	-3%	-1	1.2	-4
> Cc1cc(=O)oc2cc(OC(C)C)ccc12
  -18	-5%	-10	-1.7	5
> CCOC(=O)N1CCC(NC(=O)C2CCCN(Cc3nc(-c4cccc(C)c4)oc3C)C2)CC1 (stereo unspecified)
  ·	·	·	0.1	3
> O=C(CN1c2ccccc2Sc2ccccc21)NNC(=S)Nc1ccc(Cl)cc1
  ·	1%	·	7.8	2
> Cc1ccc(OCCCn2c(=O)sc3ccccc32)cc1
  19	0%	0	11	66
> CCCCNC(=O)OC(C)CNC(=O)OC (stereo unspecified)
  -8	-3%	2	0.6	6
> CCCCN(C(=O)c1cc(S(=O)(=O)N2CCCCCC2)ccc1OC)c1c(N)n(CCC)c(=O)[nH]c1=O
  ·	·	·	1.8	-10
> O=C(NNC(=O)c1cccs1)c1ccco1
  ·	-7%	1	1.4	-5
> COc1ccc(NC(=O)C2CCC(CNc3c(N4CCCCC4)c(=O)c3=O)CC2)cc1OC (stereo unspecified)
  -35	-2%	-3	0.5	-5
> Cc1ccc(-c2nn3c(C)nnc3c3ccccc23)cc1S(=O)(=O)NC(C)(C)CO
  ·	3%	-11	-0.9	2
> COc1ccc2c(C(=O)CN3CCN(CCO)CC3)c[nH]c2c1
  -24	2%	-2	-5.5	-13
> CC(=O)Nc1nc(C)c(CCC2OCCO2)c(=O)[nH]1
  ·	0%	·	-0.2	-1
> Cn1cccc1C(=O)/C(C#N)=C/c1ccc(F)cc1
  ·	·	·	2.1	-1
> CC(C)NCC(O)c1ccc(NS(C)(=O)=O)cc1 (stereo unspecified)
  ·	-4%&-5%	2	-1.0	-1
> COc1ccc(NC(=O)CSc2nc(O)cc(=O)n2-c2ccccc2OC)cc1
  -41	1%	1	3.1	-3
> O=C(COc1ccc2ccccc2c1)Nc1ccncc1
  ·	56%	12	-2.0	97
> COc1ccc(Cl)cc1NC(=O)COC(=O)CCCN1C(=O)c2ccccc2C1=O
  -7	-2%	-6	3.9	3
> CCN1CCCC1CNC(=O)CCc1nc(-c2ccc(C)cc2)no1 (stereo unspecified)
  -14	6%	-5	-2.5	-1
> O=C(Nc1cccc(O)c1)c1cccc(NC(=O)c2cccs2)c1
  ·	·	·	0.3	-2
> O=C1CCC(=O)N1CC(O)COc1ccccc1 (stereo unspecified)
  ·	-1%	·	6.1	-6
> COC(=O)C(C)Oc1ccc2c(-c3cccc([N+](=O)[O-])c3)cc(=O)oc2c1 (stereo unspecified)
  -22	69%	-5	1.7	82
> COc1ccc(CN(CC(=O)NC(C)C)C(=O)CCC(=O)Nc2nccs2)cc1
  ·	·	·	0.0	-13
> Cc1ccc(S(=O)(=O)NCc2ccc(C(=O)N3CCCC3)cc2)cc1
  -23	-7%	0	1.5	-3
> COC(=O)N/N=C\c1cccc(OC(=O)c2cccs2)c1
  ·	19%	3	25	1
> Cc1ccc(C)c(C(=O)C(C)Sc2nc3nn(-c4ccccc4)c(=O)c-3c3n2CCCCC3)c1 (stereo unspecified)
  ·	·	·	3.5	-4
> Cc1nc(NC(=O)CSc2nnc(-c3ccccc3)c(-c3ccccc3)n2)c(Cl)cc1Cl
  -7	·	2	0.2	-3
> COc1ccc(Nc2nc(N)nc(CCl)n2)cc1
  ·	64%	·	3.4	99
> O=C(COC(=O)CCNS(=O)(=O)c1ccc(Cl)cc1)NCc1ccco1
  -29	·	5	-2.8	-2
> CC1Cc2cc(S(=O)(=O)N3CCC(C(=O)Nc4ccccn4)CC3)ccc2N1C(=O)C1CCC1 (stereo unspecified)
  ·	·	·	1.1	4
> O=C1CCCN2N=C(SCC(=O)Nc3ccc(Cl)cc3)SC2=N1
  ·	·	·	-2.5	8
> Cc1ccc(S(=O)(=O)NNC(=O)C(=O)NNS(=O)(=O)c2ccc(C)cc2)cc1
  ·	0%	8	4.6	3
> COc1ccc(OC)c(S(=O)(=O)N2Cc3ccccc3CC2C(=O)Nc2nccs2)c1 (stereo unspecified)
  5	1%	-1	-1.9	21
> Cc1nnc(SCC(=O)NC2CCCCCC2)n1C
  ·	·	·	0.7	-6
> O=C(/C=C/c1ccccc1)Nc1ccc(N2CCCCC2)cc1
  -20	5%	-2	-3.8	4
> Cc1ccc(N2CSC3=C(C#N)C(c4cccs4)CC(=O)N3C2)cc1 (stereo unspecified)
  -18	7%	1	5.5	1
> CCc1ccc2[nH]c(=O)c(CN(CCO)C(=O)NCc3ccccc3)cc2c1
  ·	-9%	-1	2.6	-2
> Cc1cc[n+](-c2[nH]c(=O)sc2/C=N/NC(=O)c2ccccc2[O-])cc1C
  -16	-5%	-5	0.0	-1
> CCOc1ccc2[nH]cc(S(=O)(=O)c3ccc(C)cc3)c(=O)c2c1
  ·	1%	1	0.5	1
> COc1cccc(C(C#N)N2CCOCC2)c1 (stereo unspecified)
  -31	-13%	-2	5.4	-9
> CCOC(=O)C1(CCOc2ccccc2)CCN(Cc2ccccc2OC)CC1
  ·	·	·	3.6	-4
> Cc1occc1-c1nnc(SCC(=O)NC(C)(C)C)n1CC(C)C
  ·	-1%	4	-1.6	-6
> Cc1ccc2oc(C(Cl)(Cl)Cl)cc(=O)c2c1
  -30	5%	-10	1.3	-2
> Cc1ccc(/C=C2/C(=N)N3N=C(CC(=O)N4CCCC4)SC3=NC2=O)cc1
  ·	·	·	-0.8	9
> CCc1nn(CC(=O)N2CCN(CC)CC2)c(=O)c2cc3sccc3n12
  ·	·	·	1.1	3
> CCc1ccccc1NC(=O)COC(=O)C1C2CC3OC(=O)C1C3C2 (stereo unspecified)
  ·	·	·	0.8	-10
> CCCc1c(C(=O)Nc2ccc(F)cc2F)cnn1-c1ccccc1
  ·	-8%	·	11	2
> C=CCn1c(=NC(=O)c2ccc(S(=O)(=O)N3CCCC3)cc2)sc2cc(NC(C)=O)ccc21
  -24	-2%	11	-23	6
> CC1(C)CC(=O)C(N=Nc2c(F)cccc2F)=C(O)C1
  ·	-12%	·	-1.1	-10
> Cc1cccc(OCCC(=O)OCC(=O)Nc2c(C)nn(-c3ccccc3)c2C)c1
  ·	·	·	1.3	-10
> COc1ccc(Cl)cc1N(CC(=O)Nc1cccc(SC)c1)S(C)(=O)=O
  -3	-6%	-8	-4.5	-5
> Cc1nc2cc(NC(=O)NCc3ccco3)ccc2n1C
  -10	0%	2	-1.9	-12
> COCc1cc(C)n(CC(=O)N2CCCC2)c(=O)c1C#N
  ·	3%	2	0.2	0
> CCOC(=O)C1CCN(C(=O)COC(=O)c2nc3nc(C)cc(C)n3n2)CC1
  ·	·	·	-5.7	-6
> Cc1cc(C)c(C)c(S(=O)(=O)NCc2ccncc2)c1C
  ·	·	·	6.1	-1
> O=C(NCc1ccc(Cl)cc1)C1CCN(S(=O)(=O)c2ccccc2)CC1
  ·	-4%	0	0.5	0
> N=C1SCC(=O)N1/N=C/c1ccccc1
  ·	-7%	9	1.1	-5
> Cc1cc(C)n2nc(SCc3nnc(-c4ccc(F)cc4)o3)nc2n1
  ·	-4%	23	0.4	-3
> NC(=O)NOCc1c(Cl)cccc1Cl
  ·	-4%	5	-1.3	-4
> Cc1ccc(S(=O)(=O)CCC(O)c2ccc(Cl)cc2)cc1 (stereo unspecified)
  ·	·	·	-4.9	2

# Single entries from the entries so far:
# `Cc1ccc(S(=O)(=O)NNC(=O)C(=O)NNS(=O)(=O)c2ccc(C)cc2)cc1` – Mtb H37Rv = 0%
# `O=C(COC(=O)C1CCN(c2ccc(C(F)(F)F)cn2)CC1)Nc1ccc(Cl)cc1` – RecA intein inh = 2.0
# `COC(=O)C(C)Oc1ccc2c(-c3cccc([N+](=O)[O-])c3)cc(=O)oc2c1` (stereo unspecified) – RecA intein inh = 1.7
# `Cc1cc(C)n2nc(SCc3nnc(-c4ccc(F)cc4)o3)nc2n1` – Arbovirus anti = 23
# `Cc1cccc(OCCC(=O)OCC(=O)Nc2c(C)nn(-c3ccccc3)c2C)c1` – Mtb betalactam = -10

# (further entries)
# The line under a structure holds: YopH PTP inh	Mtb H37Rv	Arbovirus anti	RecA intein inh	Mtb betalactam
> O=C(CSc1nc(O)cc(=O)[nH]1)N1CCCc2ccccc21
  -25	-2%	-3	-0.1	1
> CC(C)[C@@H](C(=O)O)N(Cc1cccc(CN([C@H](C(=O)O)C(C)C)S(C)(=O)=O)c1)S(C)(=O)=O
  ·	·	·	0.8	-14
> S=C(Nc1ccccc1)N1CCN(Cc2ccccc2)CC1
  ·	4%	·	-21	-4
> COCCNC(=O)CN(C(=O)Cn1nnc2ccccc21)c1ccc(C)cc1
  ·	0%	1	1.2	0
> Cc1ccc2nc(-c3ccc(Br)cc3)cn2c1
  ·	·	·	0.7	1

# Taken from the results shown, three compounds:
# The line under a structure holds: YopH PTP inh	Mtb H37Rv	Arbovirus anti	RecA intein inh	Mtb betalactam
> S=C(Nc1ccccc1)N1CCN(Cc2ccccc2)CC1
  ·	4%	·	-21	-4
> COCCNC(=O)CN(C(=O)Cn1nnc2ccccc21)c1ccc(C)cc1
  ·	0%	1	1.2	0
> Cc1ccc2nc(-c3ccc(Br)cc3)cn2c1
  ·	·	·	0.7	1
